# BasE inh – inhibitors of Acinetobacter baumannii siderophore enzyme BasE; purified BasE, fluorescence polarization binding displacement; inhibition, % (no concentration beside the values); 84,000 tested, 0.1% active; AID 485350;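 active = both replicates above 25% with normal brightness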;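 also: 0% = negative plate control signal and 100% = positive plate control signal; stock transfer was 100 nL into about 30 µL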
# LANA-nucl inh – LANA-nucleosome interaction inhibition | FITC-LANA1-23 / chicken nucleosome fluorescence polarization; stronger effect = lower value | z-score (test concentration not listed) | 51,000 tested, 0.3% active | AID 720717;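 active = both repeat wells score below -2 in polarization z-score versus plate sample wells, excluding overly bright wells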;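 also: 100 nL library stock added to about 30 µL; numbers are from one replicate; some results filed as inactive read as strong as hits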
#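 Material: Purified chicken nucleosomes with FITC-labelled LANA N-terminal peptide (1-23) | Reagent: 50 nM FITC-LANA1-23 probe | Medium: TEN-BT buffer, pH 7.5 | Times: 10–45 min incubation at room temperature | Detection: Fluorescence polarization | Replication: Duplicates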
# * = called active by the depositor; . = no result given; & = joins results of further samples.
smiles,BasE inh,LANA-nucl inh
CC1OC(O[C@H]2/C=C/C=C/C=C/C=C/C=C/C=C/C=C/[C@H](C)[C@@H](O)[C@@H](C)[C@H](C)OC(=O)CC(O)CC(O)CCC(O)C(O)CC(O)CC3(O)C[C@H](O)C(C(=O)O)C(C2)O3)C(O)[C@H](N)C1O (stereo not given in full),-3.5,-0.055&0.086
CCN1CCCC1CNC(=O)c1c(O)c2c([nH]c1=O)CCCC2 (stereo not given),-1.3,0.699
CCOc1ccc(N=c2scc(-c3ccc(S(=O)(=O)N(CC)CC)cc3)n2CCCO)cc1,-0.8,.
S=c1[nH]nc(SCc2cccs2)s1,6.0,.
COc1ccccc1C1CCN(S(=O)(=O)c2ccc(-c3csc(C)n3)s2)CC1,1.7,.
O=c1[nH]c2cccnc2n1-c1ccccc1,6.2,-0.841
CCCCN(C(=O)c1cccs1)c1nnc(-c2cc(OC)cc(OC)c2)s1,-2.6,0.822
O=C(O)CCN1C(=O)c2ccc(F)cc2C1=O,0.1,-0.165
COc1ccc(/C=C(\C#N)C(N)=O)cc1OC,-0.8,-0.0985
CC(C)(C)c1ccc(Oc2ncnc3c2oc2ccccc23)cc1,-3.4,.
c1ccc(CN2CCc3nc(N4CCCC4)ncc3C2)cc1,-2.0,0.613
O=S(=O)(c1ccc(Cl)s1)N1CCN(Cc2ccccc2)CC1,.,0.445
COc1ccc(Br)cc1CN(C)CC(O)COCc1ccc2c(c1)OCO2 (stereo not given),-3.8,.
CC(C)Sc1ncnc2c1cnn2-c1ccccc1,-4.0,-0.128
Cc1ccc(NC(=O)c2[nH]nc3c2COc2ccccc2-3)c(C)c1,-2.0,0.074
C=CCNC(=O)c1csc2c1CCCC2,0.7,-0.0475
CC(N)c1nc(-c2cccnc2)no1 (stereo not given),1.6,0.722
CC1(C)NC(=O)N(CC(O)CN(Cc2ccccc2)Cc2ccccc2)C1=O (stereo not given),0.0,-0.645
O=C(O)c1ccc(C(=O)NCC2CCCO2)c(C(=O)O)c1 (stereo not given),-0.4,-0.111
COCCn1c(=O)[nH]c(=O)c2c(C)cc(-c3ccc(F)cc3)nc21,-14.1,.
CC1CN(C(=O)CSc2nnc(NC(=O)Nc3ccccc3)s2)CC(C)O1 (stereo not given),-1.5,-1.05
O=c1[nH]cnc2c1sc1nc(N3CCOCC3)c3c(c12)CCCC3,2.7,.
NC(=O)c1ccccc1OCC(=O)N1CCCc2ccccc21,0.4,.
CC(=O)Nc1ccc2c(c1)S(=O)(=O)c1cc(NC(C)=O)ccc1-2,-3.0,-1.29
O=C(Cc1ccsc1)Nc1ccc(-n2cnnn2)cc1,1.1,.
N#C/C(=C(/O)CSc1ncnc2sc3c(c12)CCC3)c1nc2ccccc2[nH]1,1.2,.
CCOC(=O)c1cnc2c(-c3ccccc3)c(C(F)(F)F)nn2c1C,-0.5,-0.102
S=c1[nH]nc(Nc2cccc(Br)c2)s1,4.1,.
COc1cc(N=c2scc(-c3ccc(S(=O)(=O)N4CCCC4)cc3)n2C)c(OC)cc1Cl,-0.5,.
CCCCc1nc2ccccc2n1CC(=O)NC1=NCCS1,-1.1,.

# 5 of these compounds in another layout.
# Sequence of screens: BasE inh	LANA-nucl inh
- CCCCc1nc2ccccc2n1CC(=O)NC1=NCCS1
  -1.1	.
- S=c1[nH]nc(Nc2cccc(Br)c2)s1
  4.1	.
- N#C/C(=C(/O)CSc1ncnc2sc3c(c12)CCC3)c1nc2ccccc2[nH]1
  1.2	.
- CC(=O)Nc1ccc2c(c1)S(=O)(=O)c1cc(NC(C)=O)ccc1-2
  -3.0	-1.29
- O=C(Cc1ccsc1)Nc1ccc(-n2cnnn2)cc1
  1.1	.

# The results go on.
smiles,BasE inh,LANA-nucl inh
Cc1ccc(C)n1NC(=O)c1ccc(Oc2ncnc3sccc23)cc1,2.0,.
CC(C)CCC(=O)O,2.2,.
C=CCN1C(=O)/C(=C\c2ccc(OCc3ccccc3C#N)cc2)C(=O)NC1=S,0.9,.
O=C(O)C1C2C=CC3(O2)C1C(=O)N1c2ccccc2C2OCCC2C13 (stereo not given),3.6,-1.15
COc1ccc(/C=c2\sc3nc4cc(Br)cnc4n3c2=O)cc1,3.3,0.383
CCOc1ccc(NC2=NCCC(=O)N2Cc2cccs2)cc1,-0.4,0.492
Cc1cc2c3c(c1)C1(C(=O)N3C(C)(C)CC2C)C(C#N)=C(N)Oc2cc(O)ccc21 (stereo not given),3.1,-0.112
CC(OC(=O)c1cccc(S(=O)(=O)NCc2ccccc2)c1)C(=O)N1CCN(C(=O)c2ccco2)CC1 (stereo not given),0.9,.
COc1ccc(/C=C2\CCOC2=O)cc1,1.4,-1.31
O=C(NC(Cc1ccccc1)C(=O)O)OCc1ccccc1 (stereo not given),4.0,-0.417
O=C1CC(C(=O)NCc2ccco2)C2(CCCCC2)O1 (stereo not given),0.0,-1.7
CCOc1cc2c(cc1/C=C1\NC(=S)NC1=O)OCO2,-7.8,1.86
CCOC(=O)c1ccc(N=Cc2cccs2)cc1,.,0.126
Cc1ccc(SC(C)C(=O)O/N=C(\N)c2ccccn2)cc1 (stereo not given),-1.3,-0.302
O=C(NCCO)c1ccc2c(c1)OCO2,1.6,0.975
CC1CCN(C(=O)c2cc3c(=O)[nH]c4ccccc4c3s2)CC1,2.1,0.278
Cc1nc(-c2cc(C#N)c(SCCNC(=O)c3ccc(Cl)cc3Cl)nc2C)cs1,0.5,.
COc1ccccc1Cn1c(=O)c2cccnc2n(CC(=O)NCc2ccc(C)cc2)c1=O,-1.9,-0.964
CCCn1c(=NC(=O)CS(=O)(=O)c2ccccc2)sc2cc(S(C)(=O)=O)ccc21,1.0,0.169
CC1CCN(c2nc(-c3ccc(C(C)C)cc3)c(C#N)c(=O)[nH]2)CC1,2.0,-0.642
C[C@H](NC(=O)c1cccc(C(F)(F)F)c1)c1nc2ccccc2[nH]1,-1.4,.
COC(=O)c1ccc(NC(=O)CNC(C)(C)CO)cc1,1.9,.
CN1CCN(CC(O)COCc2ccccc2)CC1 (stereo not given),5.6,.
CCOc1ccc(-n2c3nc4ccccc4nc3c3c(=O)n(CCOC)cnc32)cc1,1.6,.
Cc1ccccc1-n1c(SCc2nc(N)nc(N)n2)nc2sc3c(c2c1=O)CCCCC3,0.2,.
CCCN1C(=O)CCS(=O)(=O)c2ccccc21,1.1,-0.1
Cc1c(N=C/C=C/c2ccccc2)c(=O)n(-c2ccccc2)n1C,2.3,0.0275
Cc1c(/C=N/NC(=O)Cc2cccs2)cc(C#N)n1C,-0.1,.
CC(OC(=O)c1ccccc1NCc1ccco1)C(=O)Nc1ccc(Cl)cn1 (stereo not given),1.6,.
CC(NC(=O)c1ccc(Br)cc1)C1CCCO1 (stereo not given),0.7,0.8
COC(=O)c1ccccc1N(C)C(=O)c1cc2ccccc2oc1=O,2.6,-1.71
CSc1nc(-c2ccc(Cl)cc2)nc(N)c1C#N,2.0,-1.04
O=C(NCCc1ccccc1)C1CC(=O)N(CCc2ccccc2)C(=Nc2ccc(F)cc2)S1 (stereo not given),2.0,.
C#CCOC(=O)Nc1cnccc1C(F)(F)F,8.9,-1.6
COc1ccc(CNC(=O)c2cnn3c2NC(c2ccc(C)cc2)CC3C(F)F)cc1OC (stereo not given),2.1,0.427
c1ccc(Nc2nnc(-c3ccc(-c4nc5ccccc5s4)s3)o2)cc1,1.1,.
O=C(c1cc(-c2ccccc2)n[nH]1)N1CC=C(c2ccccc2)CC1,1.0,.
C#CCn1c(=NC(=O)c2ccc(S(=O)(=O)N3CCCC3)cc2)sc2cc3c(cc21)OCO3,-1.2,-0.514
NC(=O)N=Nc1c(O)[nH]c2ccccc12,0.5,.
O=C(O)C1C2C=CC(C2)C1C(=O)N1CCN(C(c2ccccc2)c2ccccc2)CC1 (stereo not given),2.1,.
O=c1c2ccccc2cnn1-c1nc2ccccc2[nH]1,0.0,.
O=C1c2ccccc2C(=O)N1SSN1C(=O)c2ccccc2C1=O,2.1,-0.454
CC(C)(CNC(=O)c1cc2ccccc2cc1O)N1CCOCC1,0.7,.
Cc1ccsc1C=Nc1ccc(O)cc1,-0.8,-0.114
CCOc1cc(-n2cnnn2)c(OCC)cc1NC(=O)c1cn(-c2ccc(F)cc2)nn1,-1.6,0.976
CCC(CC)C(=O)N1CCN(Cc2ccccc2)CC1,2.6,0.617
CCNC(=O)COc1ccc(N(C)S(=O)(=O)c2ccc(Cl)cc2)cc1,2.1,.
COc1ccccc1Nc1nc2ccccc2c2nncn12,1.5,-0.459
N#Cc1cc2cc3c(cc2nc1SCc1cccnc1)OCCO3,1.1,-0.0435
CCN(C(=S)NC(=O)c1ccc(Br)o1)c1ccccc1,-1.6,-0.717

# Continuation:
smiles,BasE inh,LANA-nucl inh
CC(CN(C)C)CN1c2ccccc2CCc2ccccc21 (stereo not given),-0.9&-3.2,0.013&0.623&-0.0975
O=C(CSc1nnc(-c2cccs2)n1CC1CCCO1)c1ccc2[nH]c(=O)oc2c1 (stereo not given),3.4,.
CCc1n[nH]c(=O)c2cc3sccc3n12,0.2,-0.355
O=C(c1c(F)cccc1F)N1CCCC(c2nc(-c3cccs3)no2)C1 (stereo not given),0.3,-0.335
CN1CCN(Cc2c(O)ccc3c(=O)c(-c4ccccc4)coc23)CC1,-2.0,0.214
COCCNC(=O)Cc1nc2ccccc2n1CC(=O)Nc1ccc(S(=O)(=O)N2CCCC2)cc1,-0.2,.
CSc1nc2c(c(=O)[nH]1)C(c1ccc(C(C)C)cc1)C1=C(CC(C)(C)CC1=O)N2 (stereo not given),2.3,0.02
N#CCc1c(Cl)sc2ccc(Cl)cc12,0.2,.
O=C(COc1c(F)c(F)cc(F)c1F)c1ccc2c(c1)OCCO2,0.9,.
CCC(C)(C)NS(=O)(=O)c1cc(-c2onc(C)c2C)ccc1C,1.9,.
O=C(CSc1ccnc(=O)[nH]1)NCc1ccccc1,2.3,-0.479
CN(C)/C=C(\C#N)C(=O)C1CC1,-0.6,0.82
O=C1CN(C(=O)Cc2ccc(S(=O)(=O)N3CCCCC3)cc2)c2ccccc2N1,2.1,.
Cc1cccc(NC(=O)CC23CC4CC(CC(C4)C2)C3)n1,2.0,-0.887
Cc1c(C#N)oc2ccccc12,0.5,.
CCCCn1c(=O)c2c(ncn2CC(C)=O)n(CCCC)c1=O,.,-0.251
CCN(C(=O)COc1ncnc2sc(-c3ccccc3)cc12)C1CCS(=O)(=O)C1 (stereo not given),2.0,.
O=C(O)CCCc1nc(-c2ccccc2)no1,3.1,-0.389
CC(CCc1ccccc1)NC(=O)COc1ccc(-c2nnco2)cc1 (stereo not given),1.8,.
CC(C)(C)NS(=O)(=O)c1ccc2[nH]c3c(c2c1)CCCCC3,-1.2,.
CC(C)(C)OC(=O)N1CCC(CNC(=O)c2ccc(F)cc2F)CC1,0.4,.
CCCCCOc1ccc(C(=O)CCC(=O)O)cc1,-0.4,.
O=c1oc2ccccc2c2nccnc12,1.3,0.0715
C(=C\c1ccccc1)/CNCc1ccco1,-0.1,-1.01
CC1=C(C(=O)Nc2ccccc2)C2(CCCCC2)C(C#N)=C(S)N1,2.8,.
Cc1nn(-c2ccccc2)c2c1C(c1ccccc1)N1C=C(S(=O)(=O)N3CCCCC3)C=CC1=N2 (stereo not given),1.0,.
Nc1nccc(-c2cccc(C(F)(F)F)c2)n1,.,0.0245
O=C(Nc1ccc(-c2ccc3nncn3n2)cc1)C1CCCC1,-0.9,0.219
CCCc1c(O)nc(SCC(=O)N(CC)CC)[nH]c1=O,-1.5,1.7
O=C(Cc1ccc(-c2ccccc2)cc1)NN1CCOCC1,1.4,0.814
CN1CCN(Nc2oc(-c3ccc(F)cc3)nc2C#N)CC1,1.1,.
CCOC(=O)Nc1nnc(Cc2cccc(Br)c2)s1,1.3,-1.64
NCC(c1ccccc1)c1ccccc1,1.8,.
O=C(NCCc1ccccc1)c1ccoc1COc1ccccc1,-3.4,2.15
O=c1c2ccccc2[nH]c(=S)n1-c1cccc(S(=O)(=O)N2CCCC2)c1,0.1,.
COc1ccccc1C(=O)NC1CCN(c2ncccn2)CC1,-0.7,-1.17
N#Cc1ccccc1NC(=O)COC(=O)c1oc2ccccc2c1CSC1CCCCC1,-0.4,.
O=C(Nc1ccc(N2CCN(c3ccc(C(F)(F)F)cn3)CC2)nc1)Nc1ccccc1OC(F)(F)F,0.6,-1.67
Cc1cc(C)nc(SCCS(=O)Cc2ccc(Cl)cc2)n1 (stereo not given),-0.6,.
CCN(CC)C(=O)C(C(F)(F)F)C(F)(F)F,1.6,0.228

# Some of the entries so far, field by field.
compound: CCOC(=O)Nc1nnc(Cc2cccc(Br)c2)s1
  BasE inh: 1.3	LANA-nucl inh: -1.64

compound: NCC(c1ccccc1)c1ccccc1
  BasE inh: 1.8	LANA-nucl inh: .

# Later entries.
smiles,BasE inh,LANA-nucl inh
O=C(Nc1c2c(nn1-c1ccc(Oc3ccccc3)cc1)CSC2)c1ccco1,-5.0,.
CCC(c1nnc(SCc2ccc(C(=O)OC)o2)n1Cc1ccccc1)N(C)C (stereo not given),-0.8,.
O=C(Nc1ccc2c(c1)CCC2)c1ccc(Cl)nc1,-1.6,.
Cc1cc(C)c(S(=O)(=O)c2cccc(C(F)(F)F)c2)c(=O)[nH]1,.,0.57

# This is a subset; the hit share may differ from the screen's.
